AF4-AF9 inh – inhibitors of human MLL-AF4/AF9 interaction | P42568 | AlphaScreen, biotin-AF4 peptide binding to FLAG-AF9 | inhibition, % at 10 µM | AID 651704 | 0.47% of 350,000 active;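 active = every replicate reaching a set inhibition limit, whatever the replicate mean, cut at about 25% in these data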;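 also: 0% = plate neutral control median and 100% = total signal loss; the record names both 10 and 1 µM as test concentration; the first replicate is given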
Target sequence (P42568 whole entry, looked up): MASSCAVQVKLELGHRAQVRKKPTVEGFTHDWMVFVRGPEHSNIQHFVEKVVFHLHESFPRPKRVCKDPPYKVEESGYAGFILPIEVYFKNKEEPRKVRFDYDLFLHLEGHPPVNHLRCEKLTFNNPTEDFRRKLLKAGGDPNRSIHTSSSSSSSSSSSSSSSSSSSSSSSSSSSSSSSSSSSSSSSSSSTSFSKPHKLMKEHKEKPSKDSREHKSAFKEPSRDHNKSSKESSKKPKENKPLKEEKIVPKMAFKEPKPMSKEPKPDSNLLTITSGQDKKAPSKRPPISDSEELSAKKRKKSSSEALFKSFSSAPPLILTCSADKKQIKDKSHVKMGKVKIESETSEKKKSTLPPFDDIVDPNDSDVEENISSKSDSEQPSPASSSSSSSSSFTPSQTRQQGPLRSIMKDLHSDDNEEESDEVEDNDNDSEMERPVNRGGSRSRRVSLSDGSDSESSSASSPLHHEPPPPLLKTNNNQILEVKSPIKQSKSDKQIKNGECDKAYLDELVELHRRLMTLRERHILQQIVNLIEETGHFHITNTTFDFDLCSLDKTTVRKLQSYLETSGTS
FGF22 binding – binders of recombinant human FGF22 by thermal shift. Q9HCT0. SYPRO orange fluorescence; percent of sucrose octasulfate shift, DMSO zero. calls only at 9.99 µM. 1.5% of 340,000 active;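 active = melting point raised past a set limit in the mean and every replicate; three in four hits are not shown here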
Target sequence (Q9HCT0 whole entry, looked up): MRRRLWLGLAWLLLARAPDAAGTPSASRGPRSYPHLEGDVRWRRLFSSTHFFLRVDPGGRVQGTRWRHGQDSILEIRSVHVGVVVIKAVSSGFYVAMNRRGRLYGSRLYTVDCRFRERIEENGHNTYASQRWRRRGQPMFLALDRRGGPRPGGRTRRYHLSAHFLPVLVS
Active calls of the source: *; i = inactive. Only part of the results is shown (hit frequency here may not be typical).

FGF22 binding | AF4-AF9 inh | compound
i | -1.7 | C[C@@H]1CN([C@@H](C)CO)C(=O)c2cccc(NC(=O)C3CC3)c2O[C@H]1CN(C)CC1CCCCC1
i | -2.6 | COc1ccc(S(=O)(=O)Nc2ccc3c(c2)C(=O)N([C@H](C)CO)C[C@H](C)[C@H](CN(C)S(=O)(=O)c2ccc(C)cc2)OCCCC[C@@H](C)O3)cc1
i | 0.3 | CNC(=O)C[C@@H]1CC[C@H]2[C@H](COc3ccc(NC(=O)Nc4cccc(Cl)c4)cc3C(=O)N2C)O1
i | -1.6 | O=C(C[C@H]1CC[C@H](NC(=O)C2CC2)[C@H](CO)O1)Nc1ccccc1
i | -0.4 | CCN1[C@H](C(=O)N(C)C)[C@@H](CO)[C@@H]2Cn3c(ccc(-c4cccc(OC)c4)c3=O)[C@@H]21
i | -1.3 | CO[C@H]1CN(C)C(=O)c2ccc(NC(=O)c3ccccc3F)cc2OC[C@@H](C)N(C(C)=O)C[C@@H]1C
i | 1.9 | C[C@@H]1CN([C@H](C)CO)C(=O)c2cc(C3=CCCCC3)cnc2O[C@@H]1CN(C)Cc1ccccc1
i | -2.5 | CC1=CC2(CO)C(=O)[C@]3(CO3)[C@H]1[C@H]1[C@]2(C)C=C(CO)C(=O)[C@]12CO2
i | -2.9 | C[C@H](CO)N1C[C@H](C)[C@H](CN(C)C)Oc2ccc(NC(=O)Cn3cnnn3)cc2C1=O
i | 59* | C[C@H](CO)N1C[C@H](C)[C@@H](CN(C)Cc2ccc(-c3ccccc3)cc2)Oc2ccc(N(C)C)cc2CC1=O
i | 2.3 | C[C@H]1CN([C@@H](C)CO)S(=O)(=O)c2ccc(C3=CCCC3)cc2O[C@@H]1CN(C)C(=O)c1ccc(F)cc1
i | -3.4 | CO[C@@H]1CN(C)C(=O)c2ccc(NS(=O)(=O)c3ccccc3C)cc2OC[C@@H](C)NC[C@@H]1C
i | -18 | O=C(C[C@H]1CC[C@@H]2[C@H](COC[C@H](O)CN2C(=O)Nc2ccc(F)cc2)O1)NCCCN1CCOCC1
i | -10 | CC(C)(O)C#Cc1ccc([C@@H]2[C@H]3CN(C(=O)c4ccc(F)cc4)CCCCN3[C@H]2CO)cc1
i | 6.8 | O=C(C1CCC1)N1CCCCN2[C@H](CO)[C@H](c3ccc(C#CC4CCCC4)cc3)[C@H]2C1
i | -0.7 | CCCNC(=O)N(C)C[C@H]1Oc2cc(Br)ccc2S(=O)(=O)N([C@H](C)CO)C[C@H]1C
i | -3.2 | CCCC#Cc1ccc([C@@H]2[C@H]3CN(S(=O)(=O)Cc4ccccc4)CCCCN3[C@H]2CO)cc1
i | -0.8 | COc1ccc(S(=O)(=O)Nc2ccc3c(c2)C(=O)N([C@H](C)CO)C[C@H](C)[C@@H](CN(C)S(=O)(=O)c2ccc(C)cc2)OCCCC[C@@H](C)O3)cc1
i | -1.6 | CO[C@@H](CN(C)C(=O)c1ccccc1F)[C@@H](C)CN([C@H](C)CO)S(=O)(=O)c1ccc(C)cc1
i | -2.8 | O=C(C[C@@H]1CC[C@@H](NC(=O)c2ccccc2)[C@@H](CO)O1)NCCc1ccncc1
i | -3.8 | C[C@H](CO)N1C[C@H](C)[C@H](CN(C)C(=O)Nc2ccc(F)cc2)Oc2ccc(NC(=O)C3CCCCC3)cc2C1=O
i | 2.5 | COC(=O)C[C@@H]1CC[C@H]2[C@@H](COC[C@H](O)CN2S(=O)(=O)c2ccc(F)cc2)O1
i | 2.7 | C[C@@H]1CCCCO[C@@H](CN(C)C(=O)NC2CCCCC2)[C@@H](C)CN([C@H](C)CO)C(=O)c2cc(NC(=O)Nc3ccc4c(c3)OCO4)ccc2O1
i | -1.4 | C[C@@H]1CN([C@@H](C)CO)S(=O)(=O)c2ccc(-c3ccc(F)cc3)cc2O[C@H]1CN(C)C(=O)Nc1ccccc1F
i | 7.1 | O=C(N1CCOCC1)[C@]1(Cc2ccccc2)N=C(c2ccc(OCCCO)cc2)O[C@@H]1c1ccccc1
i | -1.7 | Cc1noc(C)c1S(=O)(=O)N(C)C[C@@H]1Oc2ccc(NC(=O)NC3CCCCC3)cc2CC(=O)N([C@H](C)CO)C[C@@H]1C
i | -7.0 | C[C@H](CO)N1C[C@H](C)[C@@H](CN(C)Cc2ccccn2)Oc2ncc(C#CCC3CCCC3)cc2C1=O
i | -1.6 | O=C(CC1CC1)Nc1ccc2c(c1)[C@H]1C[C@H](CC(=O)NC3CCCC3)O[C@H](CO)[C@H]1O2
i | -0.3 | CCCC#Cc1cnc2c(c1)C(=O)N([C@@H](C)CO)C[C@@H](C)[C@@H](CN(C)C(=O)Cc1ccccc1)O2
i | -6.1 | Cc1ccccc1-c1cnc2c(c1)C(=O)N([C@@H](C)CO)C[C@H](C)[C@H](CN(C)Cc1ccncc1)O2

Some of these compounds in order of the AF4-AF9 inh value, smallest number first.
FGF22 binding | AF4-AF9 inh | compound
i | -6.1 | Cc1ccccc1-c1cnc2c(c1)C(=O)N([C@@H](C)CO)C[C@H](C)[C@H](CN(C)Cc1ccncc1)O2
i | -3.2 | CCCC#Cc1ccc([C@@H]2[C@H]3CN(S(=O)(=O)Cc4ccccc4)CCCCN3[C@H]2CO)cc1
i | -2.8 | O=C(C[C@@H]1CC[C@@H](NC(=O)c2ccccc2)[C@@H](CO)O1)NCCc1ccncc1

Single values from the results shown:
C[C@@H]1CN([C@@H](C)CO)C(=O)c2cccc(NC(=O)C3CC3)c2O[C@H]1CN(C)CC1CCCCC1 | AF4-AF9 inh = -1.7
CC(C)(O)C#Cc1ccc([C@@H]2[C@H]3CN(C(=O)c4ccc(F)cc4)CCCCN3[C@H]2CO)cc1 | AF4-AF9 inh = -10
CO[C@@H](CN(C)C(=O)c1ccccc1F)[C@@H](C)CN([C@H](C)CO)S(=O)(=O)c1ccc(C)cc1 | AF4-AF9 inh = -1.6

(cont.)
FGF22 binding | AF4-AF9 inh | compound
i | 0.3 | C[C@H]1CCCCO[C@@H](CN(C)Cc2ccncc2)[C@@H](C)CN([C@@H](C)CO)C(=O)c2cc(NS(=O)(=O)c3ccc(F)cc3)ccc2O1
i | -12 | C[C@H]1CN([C@@H](C)CO)C(=O)c2cc(NC(=O)CCN3CCOCC3)ccc2O[C@H]1CN(C)C(=O)Nc1ccc(C(F)(F)F)cc1
i | -1.5 | COc1ccccc1S(=O)(=O)N[C@@H]1C=C[C@H](CC(=O)NCc2cc(F)cc(F)c2)O[C@H]1CO
i | -14 | O=C(Nc1cc(F)ccc1F)N1C[C@H]2[C@@H](c3ccccc31)[C@H](CO)N2C(=O)c1ccccc1
i | -0.4 | COc1cccc(NC(=O)C[C@H]2CC[C@H]3[C@@H](COc4ccc(NC(=O)C5CCOCC5)cc4C(=O)N3C)O2)c1
i | -1.0 | O=C(C[C@H]1CC[C@@H](NC(=O)CN2CCOCC2)[C@@H](CO)O1)NCCc1ccncc1
i | 2.4 | C[C@@H]1CN([C@H](C)CO)C(=O)c2cc(C#C[C@@H](C)O)cnc2O[C@H]1CN(C)CC1CCCCC1
i | -4.4 | CNC[C@H]1Oc2ccc(NC(=O)CCN3CCOCC3)cc2CC(=O)N([C@@H](C)CO)C[C@@H]1C
i | -0.7 | C[C@H]1CN([C@@H](C)CO)C(=O)Cc2cc(NC(=O)C3CCCCC3)ccc2O[C@@H]1CN(C)C(=O)NC1CCCCC1
i | -0.3 | CC(C)NC(=O)Nc1ccc2c(c1)C(=O)N([C@@H](C)CO)C[C@H](C)[C@H](CN(C)Cc1ccc(C(F)(F)F)cc1)O2
i | -1.2 | CCCC#Cc1cnc2c(c1)C(=O)N([C@H](C)CO)C[C@@H](C)[C@H](CN(C)C(=O)Cc1ccccc1)O2
i | -0.5 | Cc1noc(C)c1S(=O)(=O)N(C)C[C@H]1Oc2ccc(NC(=O)C3CC3)cc2CC(=O)N([C@H](C)CO)C[C@H]1C
i | 0.8 | C[C@H](CO)N1C[C@H](C)[C@H](CN(C)Cc2ccc3c(c2)OCO3)OCc2ccccc2-c2c(n(C)c3ccccc23)C1=O
i | -1.5 | C[C@H](CO)N1C[C@H](C)[C@H](CN(C)Cc2ccc3c(c2)OCO3)Oc2ccc(NS(=O)(=O)c3cn(C)cn3)cc2C1=O
i | -0.1 | Cc1ccc(S(=O)(=O)Nc2ccc3c(c2)C(=O)N([C@H](C)CO)C[C@H](C)[C@H](CN(C)C(=O)Nc2cccc4ccccc24)OCCCC[C@H](C)O3)cc1
i | -1.6 | COc1ccc(NC(=O)Nc2ccc3c(c2)[C@H]2C[C@H](CC(=O)NCc4ccccc4F)O[C@@H](CO)[C@H]2O3)cc1
i | 2.0 | CCCC(=O)Nc1ccc2c(c1)C(=O)N(C)C[C@@H](OC)[C@@H](C)CN(C)[C@@H](C)CO2
i | -0.3 | CN1C[C@@H](O)COC[C@@H]2O[C@H](CC(=O)N3CCN(c4ccccc4)CC3)CC[C@H]21
i | 0.7 | COCC(=O)Nc1ccc2c(c1)OC[C@H](C)N(Cc1ccccc1OC)C[C@@H](C)[C@@H](OC)CN(C)C2=O
i | 3.3 | C[C@@H]1CN([C@H](C)CO)C(=O)c2cccc(NC(=O)Nc3ccc(C(F)(F)F)cc3)c2O[C@H]1CN(C)CC1CCCCC1
i | -0.6 | O=C(C[C@H]1C[C@@H]2c3cc(NC(=O)Nc4ccc(C(F)(F)F)cc4)ccc3O[C@@H]2[C@H](CO)O1)NCc1cc(F)ccc1F
i | 13 | C[C@H]1CN([C@@H](C)CO)S(=O)(=O)c2ccc(C3=CCCCC3)cc2O[C@@H]1CN(C)C(=O)Nc1ccc2c(c1)OCO2
i | -0.9 | CN(C)CCCNC(=O)[C@H]1[C@H](CO)[C@H]2Cn3c(cccc3=O)[C@@H]1N2CC1CC1
i | -1.2 | C[C@H](CO)N1C[C@H](C)[C@@H](CN(C)C)Oc2ccc(NS(=O)(=O)c3cn(C)cn3)cc2CC1=O
i | 2.2 | C[C@@H]1CN([C@@H](C)CO)C(=O)c2cc(C#CC3CCCC3)cnc2O[C@H]1CN(C)C(=O)C1CCCCC1
i | -1.0 | C[C@H](CO)N1C[C@H](C)[C@@H](CN(C)S(C)(=O)=O)Oc2cc(C#CCN(C)C)ccc2S1(=O)=O
i | 15 | C[C@@H]1CCCCO[C@@H](CN(C)Cc2ccc(Cl)c(Cl)c2)[C@@H](C)CN([C@H](C)CO)C(=O)c2cc(NC(=O)CCCN(C)C)ccc2O1
i | 1.1 | C[C@@H]1CN([C@H](C)CO)C(=O)c2cccc(NC(=O)c3ccc(-c4nccs4)cc3)c2O[C@@H]1CN(C)Cc1ccc(C(F)(F)F)cc1
i | -1.9 | CNC[C@H]1Oc2ccc(NC(=O)NC(C)C)cc2C(=O)N([C@@H](C)CO)C[C@@H]1C
i | -0.7 | CC(=O)N1[C@H](C(=O)NC2CCC2)[C@@H](CO)[C@@H]2Cn3c(ccc(-c4ccc(F)cc4)c3=O)[C@@H]21
i | 1.3 | COc1ccc(CN(C)C[C@H]2Oc3ccc(NS(=O)(=O)c4ccc(OC)cc4)cc3CC(=O)N([C@@H](C)CO)C[C@H]2C)cc1
i | -2.8 | CCC(=O)N1CC2(C1)[C@@H](c1ccccc1)[C@@H](CO)N2CC1CC1
i | -2.5 | C[C@H]1CN([C@@H](C)CO)C(=O)c2cc(C#CC3(O)CCCC3)cnc2O[C@H]1CN(C)Cc1ccccc1
i | 5.2 | CO[C@@H]1CN(C)C(=O)c2cc(NC(=O)c3nc4ccccc4s3)ccc2OC[C@@H](C)N(Cc2ccncc2)C[C@@H]1C
i | -3.1 | CC(C)(O)C#Cc1ccc([C@H]2[C@@H](CO)N3CCCCN(C(=O)c4ccc(F)cc4)C[C@H]23)cc1
i | 0.2 | CCCNC(=O)N(C)C[C@H]1Oc2cc(C#CCN(C)C)ccc2S(=O)(=O)N([C@H](C)CO)C[C@@H]1C
i | 5.8 | C[C@H](CO)N1C[C@H](C)[C@H](CN(C)Cc2cccnc2)Oc2ncc(/C=C/c3ccccc3)cc2C1=O
i | 0.5 | CCC(=O)N(C)C[C@@H]1Oc2cc(-c3cccc(C#N)c3)ccc2S(=O)(=O)N([C@@H](C)CO)C[C@@H]1C
i | -12 | C[C@@H]1CN([C@@H](C)CO)C(=O)Cc2cc(NC(=O)NC3CCCCC3)ccc2O[C@@H]1CN(C)S(=O)(=O)c1ccc(Cl)cc1
i | 3.1 | C[C@@H]1CN([C@H](C)CO)S(=O)(=O)c2ccc(C#Cc3cccc(F)c3)cc2O[C@@H]1CN(C)CC1CC1
i | -1.9 | CNC[C@H]1Oc2ccc(NS(=O)(=O)c3ccc(OC)cc3)cc2C(=O)N([C@H](C)CO)C[C@@H]1C
i | 0.1 | Cc1noc(C)c1S(=O)(=O)Nc1ccc2c(c1)CC(=O)N([C@@H](C)CO)C[C@H](C)[C@H](CN(C)S(=O)(=O)c1ccc(F)cc1)O2
i | -6.8 | COc1ccc(CN(C)C[C@@H]2Oc3ccc(NS(=O)(=O)c4ccc(Cl)cc4)cc3C(=O)N([C@H](C)CO)C[C@H]2C)cc1
i | -19 | O=C(C[C@@H]1CC[C@@H]2[C@H](COC[C@@H](O)CN2S(=O)(=O)c2ccc(Cl)cc2)O1)NCCN1CCCCC1
i | 1.1 | CNC[C@H]1Oc2ccc(NC(=O)Nc3ccccc3)cc2CC(=O)N([C@H](C)CO)C[C@@H]1C
i | 1.1 | C[C@@H]1CN([C@H](C)CO)C(=O)c2cc(NC(=O)Nc3ccc4c(c3)OCO4)ccc2O[C@@H](C)CCCCO[C@@H]1CN(C)C(=O)Cc1ccccc1
i | 1.4 | O=C(Nc1cc(F)ccc1F)N[C@@H]1CC[C@@H](CCn2cc(C3CCCCC3)nn2)O[C@@H]1CO
i | 5.7 | C[C@@H]1CN([C@@H](C)CO)C(=O)c2cc(C#CC3CCCCC3)cnc2O[C@H]1CN(C)Cc1cccnc1

One compound at a time (already shown).
Listed for CCC(=O)N1CC2(C1)[C@@H](c1ccccc1)[C@@H](CO)N2CC1CC1 = FGF22 binding: i; AF4-AF9 inh: -2.8
Listed for CCCNC(=O)N(C)C[C@H]1Oc2cc(C#CCN(C)C)ccc2S(=O)(=O)N([C@H](C)CO)C[C@@H]1C = FGF22 binding: i; AF4-AF9 inh: 0.2

Screening data deposited in PubChem by Broad Institute.
